TRPML1 blocker = qHTS for Inhibitors of the Human Mucolipin Transient Receptor Potential 1 (TRPML1); Mucolipin-1 (Homo sapiens), Q9GZU1; TRPML1-inducible cells, Ca2+ dye fluorescence, FDSS; active compounds read low; inhibition of EC80 agonist-evoked calcium signal; activity change, negative = inhibition, % (concentration not given with the values); actives 0.02% (n = 390,000); AID 624415, 2012; in the data active means activity change below about -50%; inconclusive means about -30% to -50%; inactive means above about -30%;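 further: stimulus is agonist 54-4 at its EC80 concentration; on the % scale 0 is the no-effect control and ±100 the full control effect; the text of the record puts the active cut at -80%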
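Tet-induced TRPML1-DL cells loaded with Ca8 no-wash calcium dye were read kinetically on FDSS. Compound addition was followed by EC80 agonist 54-4 (4 uM final); inhibition was read over 110 s.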
D2 potentiator = Beta-Arrestin HTS for Positive Allosteric Modulators of the Human D2 Dopamine Receptor: Potentiators; actives 0.23% (n = 360,000); D(2) dopamine receptor (Homo sapiens), P14416; DiscoveRx D2 beta-arrestin cells, luminescence, 90 min; 100% = 57 uM dopamine signal; potentiation, % (concentration not given with the values); active = potentiation of 50% or more; inconclusive = 30% to 50%; inactive = 30% or less;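 further: compound concentration not given in the record; tested on top of an EC20 dose of dopamine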
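D2 cells co-treated with compound plus 50 nM dopamine (EC20) for 90 min at 37 deg C to detect potentiation. Beta-arrestin recruitment was read as enzyme-fragment luminescence after 1 h at ambient temperature. Full response was set by 57 uM dopamine.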
D2 ag = Beta-Arrestin HTS for Positive Allosteric Modulators of the Human D2 Dopamine Receptor: Agonists; AID 624465, 2012; activation, % (no concentration beside the values); D(2) dopamine receptor (Homo sapiens), P14416; DiscoveRx PathHunter D2 beta-arrestin, luminescence, 90 min; 100% = 57 uM dopamine signal; actives 0.084% (n = 360,000); in the data active = activation above about 40%; inconclusive = about 15% to 40%; inactive = below about 15%; further: compound concentration not given in the record; the text of the record calls up to 30% inactive
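DiscoveRx PathHunter D2 beta-arrestin cells (2,100/well) attached overnight, then compound-stimulated 90 min at 37 C in HBSS/10 mM HEPES/0.1% Tween-20 buffer; beta-galactosidase complementation read by luminescence after 1 h at ambient temperature. Dopamine 57 uM final (EC100) as control.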
TRPML1 ag = qHTS for Agonists of the Human Mucolipin Transient Receptor Potential 1 (TRPML1); TRPML1-expressing cells, Ca2+ dye fluorescence, FDSS; host cell line not named in the record; reference of the full effect not given here; activation, % (no concentration beside the values); actives 0.12% (n = 410,000); AID 624414, 2012; in the data active = activation above about 50%; inconclusive = about 30% to 50%; inactive = below about 30%; further: 0% is about no effect; the text of the record puts the active cut at 80%
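Calcium fluorescence on an FDSS kinetic reader gave the read-out. Tet-induced TRPML1-DL cells were plated overnight, dye-loaded (Ca8 with quencher, 45-90 min, room temperature, dark), then read 110 s after compound addition, and again 110 s after 4uM final 54-4 (EC80).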
PINK1 expr mod = A Quantitative High throughput Screen to Identify Chemical Modulators of PINK1 Expression; PINK1 immunofluorescence, high-content cytometry, 24 h; Potency, µM (top dose mostly 76.6 µM), for the others: at the top dose activation (PINK1 increase), hits mostly activators; actives 0.2% (n = 410,000); AID 624263, 2012; active = well fitted activation curve with a large enough effect; inconclusive = small, poorly fitted or top-dose-only effect; inactive = flat fitted curve, though single readings scatter; cell line not stated here;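 further: potency means the concentration at half of the fitted maximal effect; % of control where 0% means no effect; nearly all actives have a fitted effect of over 65% in size; a mitochondrial uncoupler was the plate control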
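Decision-based qHTS: stable cells, 24 h exposure to five compound concentrations, CCCP as control. Fixed cells stained for PINK1 plus nuclear, mitochondrial and cell markers, cytometer read.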
Six1-Eya2 inh = qHTS Assay for Inhibitors of the Six1/Eya2 Interaction | Homeobox protein SIX1 (Homo sapiens) + Protein phosphatase EYA2 (Homo sapiens), … | AlphaScreen GST-Six1/His-Eya2 binding, biochemical; active compounds read low; control for the full effect not named in the record | AID 651725, 2012 | actives 0.56% (n = 360,000) | activity change, % (no concentration beside the values); in the data active = activity change below about -65%; inconclusive = about -30% to -65%; inactive = above about -30%; further: on the % scale 0 is the no-effect control and ±100 the full control effect
Target sequence (O00167 whole entry, looked up): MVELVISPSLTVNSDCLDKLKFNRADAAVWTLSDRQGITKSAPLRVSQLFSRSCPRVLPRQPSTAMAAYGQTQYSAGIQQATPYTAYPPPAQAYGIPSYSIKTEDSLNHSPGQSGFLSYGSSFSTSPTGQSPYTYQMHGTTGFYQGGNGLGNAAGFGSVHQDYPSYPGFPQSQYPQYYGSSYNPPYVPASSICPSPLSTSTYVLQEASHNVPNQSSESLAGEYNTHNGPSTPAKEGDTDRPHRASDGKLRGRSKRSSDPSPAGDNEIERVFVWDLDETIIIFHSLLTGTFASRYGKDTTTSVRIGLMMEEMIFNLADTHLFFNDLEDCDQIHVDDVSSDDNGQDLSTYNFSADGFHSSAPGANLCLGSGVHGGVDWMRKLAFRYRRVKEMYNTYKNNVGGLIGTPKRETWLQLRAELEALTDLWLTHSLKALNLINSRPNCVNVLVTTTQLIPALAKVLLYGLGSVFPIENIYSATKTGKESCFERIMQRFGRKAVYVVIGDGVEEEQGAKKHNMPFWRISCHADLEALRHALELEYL
Target sequence (Q15475 whole entry, looked up): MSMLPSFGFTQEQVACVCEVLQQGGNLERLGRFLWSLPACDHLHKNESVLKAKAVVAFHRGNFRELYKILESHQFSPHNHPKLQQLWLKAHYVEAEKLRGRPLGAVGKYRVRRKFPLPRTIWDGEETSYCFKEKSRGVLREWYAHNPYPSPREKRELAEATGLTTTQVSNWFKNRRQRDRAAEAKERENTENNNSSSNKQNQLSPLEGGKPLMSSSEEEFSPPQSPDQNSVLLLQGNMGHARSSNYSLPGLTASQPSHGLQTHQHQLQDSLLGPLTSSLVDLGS
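AlphaScreen luminescence read after one hour at 37 °C in darkness. Pin-transferred compounds met GST-Six1 and His-Eya2 protein (5X stock 250 nM/500 nM) plus glutathione donor and Ni-chelate acceptor beads (5X, 50 ug/mL).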
* = called active by the depositor; ? = inconclusive; / = no result given; & = joins results of further samples; [ ] = dose if it differs, or a comment.

Values run as follows: TRPML1 blocker	D2 potentiator	D2 ag	TRPML1 ag	PINK1 expr mod	Six1-Eya2 inh
> Cc1ccc(NC(=O)c2cc3ccccc3o2)cc1S(=O)(=O)N(C)C
    28	-31	0.0	0.9	-0.1%	-3
> COc1ccc(OCC(=O)N(Cc2cccc(OC)c2)C2CCS(=O)(=O)C2)cc1 (stereo unspecified)
    52	/	/	-0.8	5.1%	/
> Cc1ccc(C(=O)Nc2nc(COc3ccccc3)cs2)s1
    -14	13	4.7	3.3	-1.4%[38.3 µM]	4
> O=[N+]([O-])c1cccc(C2Nc3ccccc3CO2)c1 (stereo unspecified)
    -2	-10	-0.8	-0.5	-1.0%	-8
> COc1ccc(-c2nc(C(F)(F)F)c(OC)o2)cc1OC
    1	-12	0.4	0.4	-1.9%	1
> N#CC1(NC(=O)COc2cc(F)ccc2[N+](=O)[O-])CCCCC1
    2	-41	2.2	-0.6	-3.2%	-4
> O=C(/C=C/c1ccc(O)cc1)c1ccc(NC2=C(N3CCCCC3)C(=O)c3ccccc3C2=O)cc1
    14	?	11	2.3	-3.3%	-11
> CCCCCn1c(CNC(=O)CCC)nc2ccccc21
    12	-16	-4.5	0.7	0.7%	-8
> CC1(C(=O)Nc2ncc(Cc3ccc(Br)cc3)s2)Cc2ccccc2C(=O)O1 (stereo unspecified)
    5	/	/	1.8	0.1%	/
> Cc1c(Cl)cccc1NC(=O)c1cc(-c2ccco2)on1
    4	-3	-2.9	-0.3	6.2%	7
> COc1cc(/C=N/NC(=O)NC23CC4CC(CC(C4)C2)C3)ccc1O
    -13	-7	3.1	-0.1	2.5%	1
> CC1CCN(C(=O)CSc2nnc3c(n2)[nH]c2ccccc23)CC1
    3	-11	-7.0	-1.8	17%	?
> O=c1n(Cc2ccccc2Cl)c2sc3c(c2c2ncnn12)CCCC3
    0	12	-0.8	0.5	-0.1%	19
> CC1=C(C(=O)NCc2ccccc2C)C2(CCCCC2)OC1=O
    20	/	/	-0.7	3.9%	/
> c1cc2c(c(CC3CO3)c1CC1CO1)OCCOCCOCCOCCO2 (stereo unspecified)
    9	-7	-4.5	0.1	0.4%	3
> O=C(CNS(=O)(=O)c1cccc2nsnc12)NCCc1ccccc1
    -1	0	0.6	-0.5	0.5%	5
> COc1ccc(-c2nn3c(=O)cc(CN4CCN(C(=O)/C=C/c5ccccc5)CC4)nc3s2)cc1
    -8	/	/	-0.9	22%	/
> CC(C)(C)c1ccc(C(=O)Nc2nonc2-c2nc3ccccc3[nH]2)cc1
    -24	-7	-0.6	0.9	2.7%	6
> O=C(Nc1ccccc1)C1=C[C@@H](C2CCCCC2)C[C@@H](OCc2ccc(CO)cc2)O1
    -2	-8	0.1	1.2	11%	-3
> Cc1nn(-c2ccc(N3CCCCC3)nn2)c(C)c1CCC(=O)Nc1cccc(F)c1
    -6&27	-12	0.8	-0.3&-0.1	1.0%&3.1%	-8
> Nc1nc(N)nc(-c2cccc(Br)c2)n1
    3	-15	-1.0	1.0	1.0%	2
> COc1ccc(/C=C/C(=O)Nc2cccc(C(C)=O)c2)cc1
    -5	-16	2.4	0.2	-1.3%	-5
> O=[N+]([O-])c1cc(S(=O)(=O)Nc2ccccc2)ccc1N1CCN(c2ccccc2)CC1
    2	-15	2.3	0.1	?	?
> Cn1ccnc1SCC(=O)c1ccc2ccccc2c1
    6	-4	-2.9	0.6	-1.6%	-5
> CCOc1cc(NC(=S)NCC2CCCO2)c(OCC)cc1NC(=O)c1ccccc1 (stereo unspecified)
    7	-5	0.2	0.0	/	-15
> CC(=O)c1ccc(OCc2cc([N+](=O)[O-])cc3c2OCOC3)cc1
    -13	-4	-2.6	0.3	4.4%	0
> CCCCCc1c(O)nc(SCCN2CCOCC2)[nH]c1=O
    16	-4	-0.1	0.1	2.4%	1
> CCOC(=O)CNC(=O)CSc1nnc(-c2cccc(OC)c2)n1CC
    7	-7	0.1	-0.8	9.5%	-1
> COCc1nnc(NC(=O)CCCOc2ccccc2OC)s1
    -18	11	-1.9	-0.5	-1.7%	0
> Cn1nnnc1SCc1cccc2ccccc12
    11	7	-2.1	1.2	2.2%	-3
> COc1ccc(N2CCN(C(=O)CNC(=O)Cc3ccc(Cl)cc3)CC2)cc1
    -2	1	-5.3	0.2	?	-3
> Cc1ccc(-c2nnc(Nc3cccc(Cl)c3)c3ccccc23)cc1S(=O)(=O)NCC1CCCO1 (stereo unspecified)
    -5	/	/	1.4	1.5%	/
> O=C(NCc1nc2ccccc2[nH]1)c1c(F)c(F)c(F)c(F)c1F
    -9	3	0.3	-1.1	0.2%	3
> C=CCn1c(SCC(=O)c2[nH]c(C)c(C(=O)OC)c2C)nc2scc(-c3ccc(OC)c(OC)c3)c2c1=O
    -2	-6	0.5	0.9	-3.8%	10
> O=C(CSc1nc2ccccc2n1Cc1ccccc1)N/N=C/c1ccccc1C(=O)O
    /	-1	-4.0	/	-0.2%	-7
> CCOc1cc(/C=N/NS(=O)(=O)c2ccc(OC)cc2)ccc1OCCN1CCOCC1
    -3	-8	-0.6	-0.4	3.4%	2
> COc1ccc(C)cc1S(=O)(=O)Nc1ccc(F)cc1
    -2	22	0.4	2.6	1.0%	2
> O=C(NCCCNC(=O)c1ccccc1F)c1ccco1
    13	-6	-2.9	0.6	0.5%	-1
> CCN(c1cccc2ccccc12)S(=O)(=O)c1ccc(Cl)nc1
    21	4	0.1	0.2	0.9%	-2
> NS(=O)(=O)c1ccc(CCNC(=O)COC(=O)CCc2ccccc2)cc1
    5	-2	-3.1	0.1	-0.2%	8
> CCc1nc(NCCc2ccccn2)c2nnn(Cc3ccccc3F)c2n1
    -5	3	-0.6	-0.6	1.0%	0
> CC(C)NC(=O)CC(c1ccccc1)c1cc(Br)ccc1O (stereo unspecified)
    -11	-12	4.9	1.8	0.9%[38.3 µM]	-21
> CC1(C)CC(=O)c2cc(C(=O)Nc3ccc(Cl)cc3)c(=O)[nH]c2C1
    3	/	/	0.5	-0.4%	/
> O=C(Cn1ncc2c3ccccc3n(Cc3ccc(Cl)cc3)c2c1=O)N1CCCCCC1
    -17	/	/	4.8	0.6%	/
> CCn1c(Cc2ccccc2)nnc1SCc1ccc([N+](=O)[O-])cc1
    -4	7	-1.3	-0.9	1.0%	0
> CCN(CC)CCOc1ncnc2c1oc1ccccc12
    7	-11	-4.9	-1.1	-0.6%	-2
> CCOC(=O)c1sc(NC(=O)c2cc(-c3ccc(F)cc3)on2)c(C(=O)OCC)c1C
    -3	/	/	0.1	-0.9%	/
> CCOC(=O)c1cnc(Nc2nc3ccccc3o2)nc1CSC(=S)N1CCCCC1
    28	-18	-1.8	0.8	?	-13
> COc1cc(C(=O)Nc2ccc(C(=O)c3ccncc3)cc2)cc(OC)c1OC
    24	-1	1.1	0.3	0.0%	-5
> CCOc1ccccc1C(=O)N1CCC(n2nnc3cc(C(F)(F)F)ccc32)CC1
    -3	-10	-0.5	0.5	-2.8%	2
> COc1ccc(C(=O)NC2CC2)cc1OC1CCN(Cc2cnn(C)c2)CC1
    1	-6	-5.6	0.0	-1.1%	-1
> COc1cccc(/C=N/Nc2cc(-n3nc(C)cc3-c3ccccc3)ncn2)c1O
    17	-36	-16	5.3	?	?
> O=C(Nc1ccccc1Br)c1cc(S(=O)(=O)NC2CCCCC2)ccc1F
    28	/	/	5.2	-0.8%	/
> CCOC(=O)c1[nH]c2ccccc2c1NC(=O)c1ccc(S(=O)(=O)N(C)C)cc1
    15	-6	-0.5	-0.1	1.1%	1
> COc1ccc(CNC(=O)c2c(N)n(CCCN3CCOCC3)c3nc4ccccc4nc23)cc1
    0	-4	11	0.0	-4.0%	21
> O=C(OCc1cccc([N+](=O)[O-])c1)c1ccc[nH]c1=O
    2	1	-0.2	-0.2	-2.4%	2
> CN(C)c1ccc(/C=N/N=C(N)N)cc1[N+](=O)[O-]
    13	-16	1.0	1.6	2.8%	?
> O=c1c2ccccc2c(/C=N/n2cnnc2)c(O)n1-c1ccccc1F
    8	-2	2.3	3.9	0.5%[38.3 µM]	-4
> Cc1ccc(N(C(=O)CCCC(=O)Nc2ccccn2)C(C(=O)NC2CCCC2)c2ccc(O)cc2)cc1C (stereo unspecified)
    -8	-15	-4.1	-0.6	23%	3
> CSc1ccc(-c2nc3cnccn3c2Nc2ccc3c(c2)OCO3)cc1
    47	-1	4.8	2.7	-1.0%	-30

Record cards, as listed above. Order of values: TRPML1 blocker, D2 potentiator, D2 ag, TRPML1 ag, PINK1 expr mod, Six1-Eya2 inh
COc1cccc(/C=N/Nc2cc(-n3nc(C)cc3-c3ccccc3)ncn2)c1O in the list: 17, -36, -16, 5.3, ?, ?
O=C(NCCCNC(=O)c1ccccc1F)c1ccco1 in the list: 13, -6, -2.9, 0.6, 0.5%, -1

The list goes on.
Values run as follows: TRPML1 blocker	D2 potentiator	D2 ag	TRPML1 ag	PINK1 expr mod	Six1-Eya2 inh
> Cc1cccc(N(Cc2cc3cc(C)ccc3[nH]c2=O)C(=O)c2cccs2)c1
    2	-10	-12	-0.3	4.7%	7
> O=C(NCCNc1ccccc1[N+](=O)[O-])c1ccccc1F
    /	-2	-8.2	/	3.8%	-4
> CCOC(=O)c1c(COc2ccccc2)oc2ccc(O)cc12
    -2	-5	1.1	1.5	0.5%	-1
> Nc1nc(-c2ccccc2)nc2sc3c(c12)CCCC3
    -7	-10	0.8	0.8	3.3%	-3
> Cc1nn(-c2cccc(Cl)c2)c2nc(C(F)(F)F)[nH]c(=O)c12
    12	-17	-0.8	-0.4	?	?
> Cn1c(=O)c2c(-c3ccccc3)n(-c3ccccc3Br)cc2n(C)c1=O
    /	2	-2.5	-0.2	0.2%	?
> Cc1ccccc1NC(=O)COC(=O)c1ccc2nc(C)c(C)nc2c1
    -27	-1	4.3	2.3	3.3%	0
> CCCCn1c(CNC(=O)C23CC4CC(CC(C4)C2)C3)nnc1SCC(=O)Nc1nnc(C)s1
    -14	-4	-3.4	-0.6	0.3%	0
> CC(C)C(NC(=O)c1c(F)cccc1F)C(=O)N1CCN(S(=O)(=O)c2ccc(F)cc2)CC1 (stereo unspecified)
    5	-3	3.1	-0.7	-0.7%	-2
> Cc1ccc2cc3cc(C(=O)NC4CCCCC4)oc3nc2c1
    35	3	-0.1	-0.7	13%	0
> O=C(Nc1ccc2c(c1)OCCO2)c1ccc(Cl)c(S(=O)(=O)N2CCCCC2)c1
    17	-23	1.0	3.1	-1.5%	-13
> O=C(NC1CCCCC1)C(c1cccnc1)N(C(=O)c1csnn1)c1ccc(F)cc1 (stereo unspecified)
    -4	-12	-2.7	-0.4	4.9%	1

High-throughput results as filed in PubChem BioAssay.
